Source: PubChem BioAssay
Beta cell apopt – blocks beta cell apoptosis | INS-1E cytokine-induced death, ATP luminescence, 48 h; percent of positive-control rescue, neutral wells zero | protection from apoptosis, % (concentration not given with the values) | actives 0.8% (n = 300,000) | AID 435005;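 active = all replicates at 75% or more, or half of them and the mean; inconclusive = half reach 75% but not the mean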;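 also: 0% = cytokine-treated negative control wells and 100% = positive control rescue; higher means more ATP so stronger rescue from cytokine killing; wells of about 40 µL received 100 nL stock; the first replicate is given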
LANA-H2B inh – blocks KSHV LANA binding to histone H2A/H2B. cell-free LANA-H2A/H2B peptide, fluorescence polarization. actives 0.6% (n = 320,000). inhibition, % (no concentration beside the values). Q9QR71; in the data active = inhibition mostly above about 10%, no sharp cut-off; inactive = mostly below about 6.7%;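 also: stock transfer was 7.5 nL into about 10 µL; 0% = median of vehicle wells and 100% = median of positive control wells; one replicate is shown; the record names a cut of 25% in any replicate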
Target sequence (Q9QR71 whole entry, looked up): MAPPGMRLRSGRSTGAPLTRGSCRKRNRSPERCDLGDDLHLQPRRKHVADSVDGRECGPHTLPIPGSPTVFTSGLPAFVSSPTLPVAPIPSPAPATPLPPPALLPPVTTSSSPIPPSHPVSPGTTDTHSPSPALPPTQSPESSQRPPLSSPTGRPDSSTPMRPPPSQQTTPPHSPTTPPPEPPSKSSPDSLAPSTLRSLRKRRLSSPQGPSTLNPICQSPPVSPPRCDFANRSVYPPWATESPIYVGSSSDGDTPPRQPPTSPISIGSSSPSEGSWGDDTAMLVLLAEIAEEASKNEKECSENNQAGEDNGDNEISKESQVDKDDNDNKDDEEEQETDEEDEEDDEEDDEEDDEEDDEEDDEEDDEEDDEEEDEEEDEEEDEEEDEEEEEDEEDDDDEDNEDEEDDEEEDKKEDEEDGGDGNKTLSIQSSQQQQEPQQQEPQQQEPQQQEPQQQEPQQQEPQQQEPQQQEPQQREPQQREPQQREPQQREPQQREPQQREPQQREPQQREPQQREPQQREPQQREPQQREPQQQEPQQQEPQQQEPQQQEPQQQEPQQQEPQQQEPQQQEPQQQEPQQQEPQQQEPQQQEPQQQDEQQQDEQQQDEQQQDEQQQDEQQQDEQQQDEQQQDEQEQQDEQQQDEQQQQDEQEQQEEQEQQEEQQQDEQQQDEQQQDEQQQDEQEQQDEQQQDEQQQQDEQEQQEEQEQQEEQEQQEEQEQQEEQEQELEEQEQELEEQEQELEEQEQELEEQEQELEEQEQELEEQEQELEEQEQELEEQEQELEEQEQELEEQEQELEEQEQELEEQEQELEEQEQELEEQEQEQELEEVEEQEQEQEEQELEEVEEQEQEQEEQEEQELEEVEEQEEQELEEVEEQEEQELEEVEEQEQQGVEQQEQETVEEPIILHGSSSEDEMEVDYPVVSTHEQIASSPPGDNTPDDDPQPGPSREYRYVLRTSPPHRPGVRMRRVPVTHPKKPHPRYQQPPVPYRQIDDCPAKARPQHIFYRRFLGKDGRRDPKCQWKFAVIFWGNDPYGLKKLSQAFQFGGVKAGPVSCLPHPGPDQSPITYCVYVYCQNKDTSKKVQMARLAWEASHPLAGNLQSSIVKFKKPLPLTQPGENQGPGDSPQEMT
ALR H2O2 inh – inhibitors of human sulfhydryl oxidase ALR | inhibition, % (test concentration not listed) | actives 3.8% (n = 290,000) | AID 485317 | P55789 | purified ALR, DTT oxidation, H2O2 HRP-luminol luminescence;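 active = mean and each replicate at 75% or more; inconclusive = only one of the two met; inactive = neither met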;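 also: stock transfer was 7.5 nL into about 7.5 µL; 0% = neutral wells and 100% = wells with inactivated enzyme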
T cruzi inh – blocks replication of Trypanosoma cruzi; AID 1885; actives 1.4% (n = 300,000); inhibition, % (no concentration beside the values); T. cruzi beta-gal in NIH3T3, luminescence, 90 h;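 active = mean inhibition across valid replicates above about 55%, limit read from the data; inconclusive = mean below that limit but half or more replicates reach it; inactive = mean below it, under half of replicates reach it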;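 also: signal also drops with host cell toxicity which is not excluded here; 0% = plate median of DMSO wells and 100% = zero luminescence signal; higher percent means less beta-gal luminescence so fewer parasites; stock transfer was 50 nL into about 50 µL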
rRNA inh HTS – inhibits bacterial ribosomal RNA function over humanized ribosomes; E. coli WT GFP vs humanized-ribosome RFP mutants, fluorescence, 24 h; active compounds read low; DMSO median 0, no signal -100; GFP signal change (wild-type ribosome), % (no concentration beside the values); actives 1.6% (n = 350,000); AID 720706;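 active = significant combined selectivity score with lowered wild-type GFP, culture density cut under 30%, mutant RFP and density less affected; inactive = any of these conditions unmet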; also: one replicate is shown; some compounds called inactive have numbers as strong as hits
Beta2AR agonist – human beta-2 adrenergic receptor agonism by FAP; Am2.2-beta2AR cells, FAP receptor internalization, flow cytometry; reference of the scale not given here; response, % (no concentration beside the values); actives 0.43% (n = 340,000); P07550;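 active = response above a set limit, near 3 SD of response in nonfluorescent compounds, cut at about 42% in these data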;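 also: stock transfer was 100 nL into about 11 µL; a reference agonist was the positive control; negative values mostly stem from fluorescent compounds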
Calb FLC – affects C. albicans growth with fluconazole; AID 1979; growth inhibition, % (concentration not given with the values); C. albicans CaCi-2 (fluconazole-resistant clinical isolate) + fluconazole, Alamar Blue growth, 48 h; actives 0.57% (n = 300,000);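 active = most replicates above 75%; inconclusive = exactly half above 75%; inactive = most below 75%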;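 also: all wells also contain fluconazole at 8 µg/ml as a sub-toxic cotreatment; 0% = median of DMSO wells and 100% = median of geldanamycin control wells; wells of about 8 µL received 7.5 nL stock; the first replicate is given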
A1 inh – inhibitors of the anti-apoptotic protein A1, read as caspase activation | MEF A1-2A-BIM cells, Caspase-Glo 3/7 luminescence, 3 h; percent of clofoctol response, vehicle zero | caspase activation, % (test concentration not listed) | actives 0.066% (n = 330,000) | AID 2462;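 active = over half of replicate activation scores above 10%, or exactly half above 10 with the replicate mean above 10; inconclusive = replicate mean below 10 yet half the replicates above 10; inactive = over half of replicates below 10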;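 also: wells of about 30 µL received 50 nL stock; many hits fall short of the cut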
rRNA inh HTS OD600 – further read-out of rRNA inh HTS, marked with its call; OD600 change, %; measured here: OD600 growth;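 optical density of the mix in the first replicate; 0 = DMSO median and -100 = no signal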
rRNA inh HTS RFP – also measured in rRNA inh HTS; calls as there; RFP signal change, %; measured here: RFP humanized mutant strains;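 first replicate; 0 = DMSO median and -100 = no signal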
* hit, by the source's call; ? = inconclusive; / = not tested or not shown. Only part of the results is shown; the hit share may differ from the screen's.

mol,Beta2AR agonist,Calb FLC,T cruzi inh,Beta cell apopt,LANA-H2B inh,ALR H2O2 inh,rRNA inh HTS,rRNA inh HTS OD600,rRNA inh HTS RFP,A1 inh
CN(C(=O)c1ccc(-c2ccccc2)cc1)C1CCCCC1,5,1,2,/,0.6,-2,-13,1,3.7,-3.2
COc1cc(Cl)c(C)cc1NC(=O)COc1cc(C)nc(C(C)C)n1,0,-24,3,-4,-1.5,/,/,/,/,0.8
CCC(C)(C(=O)NC1CCCCC1)N(C(=O)C1CCC(=O)N1)c1ccccc1 (stereo not drawn),3,0,-6,-2,0.1,2,/,/,/,0.7
C=C(C)[C@@H]1CCC2(C(=O)O)CC[C@]3(C)[C@H](CC[C@@H]4[C@@]5(C)CCC(=O)C(C)(C)[C@@H]5CC[C@]43C)[C@@H]12 (stereo partly drawn),6,3,-16,-2,0.7,4,13,19,1.7,0.2
CCN1CCN(C(CNS(=O)(=O)c2ccc(C)cc2)c2cccnc2)CC1 (stereo not drawn),7,-8,22,/,2.8,2,18,5,0.9,1.1
Cc1ccccc1C(=O)N1CCCC(N2CCN(Cc3ccc4c(c3)OCO4)CC2)C1 (stereo not drawn),6,-2,8,1,8.3,-9,11,7,0.4,0.1
Cc1ccccc1Nc1nnc(SCC(=O)NC2CCCc3ccccc32)s1 (stereo not drawn),0,-7,-10,2,/,/,/,/,/,-0.8
Cc1ccc(C)n1-n1cnc2sc3c(c2c1=O)CCCCC3,1,-8,-10,-8,0.5,9,/,/,/,0.0
CCOC(=O)c1ccc(NC(=O)CSc2nnc(CCc3ccc(C)o3)n2-c2ccccc2)cc1,-2,-4,16,5,5.0,-46,/,/,/,0.4
COc1cccc(NC(C)(C)c2nnnn2-c2c(C)cccc2C)c1,3,15,12,1,-0.5,-3,-24*,-17*,-2.7*,-0.1
CCOC(=O)c1c(C)[nH]c(C(=O)N2CCCC(C(=O)c3ccccc3OC)C2)c1C (stereo not drawn),-6,-5,9,0,1.3,/,-7,-4,13,0.6
CCOC(=O)C(C)CC(C)C(=O)N1CCOCCN(C(=O)C(C)CC(C)C(=O)OCC)CCOCC1 (stereo not drawn),-7,12,5,4,-3.6,-16,/,/,/,1.1
CC(=O)c1ccc(S(=O)(=O)NCC(=O)NC(c2nc3ccccc3[nH]2)C(C)C)cc1 (stereo not drawn),-4,/,/,-4,2.2,99*,8,12,1.6,-0.2
O=C(O)c1cc(-c2ccc(/C=C3\NC(=O)N(c4ccccc4)C3=O)o2)ccc1Cl,0,-2,-4,-1,1.5,58,6,-9,-1.8,-2.0
O=C(CNCCO)Nc1ccc(F)c(Cl)c1,2,28,-9,-1,-100,-4,16,4,1.4,0.3
O=C1C(=O)N(O)C2CCCCC2N1O (stereo not drawn),-6,16,1,-4,2.0,-4,/,/,/,0.6
COc1ccccc1CNC(=O)CSc1ccc(-c2cccs2)nn1,-4,-28,2,-9,0.7,/,-25*,-20*,0.3*,0.3
Cc1nc2c(-c3ccc(F)cc3)c(C)nn2c(C)c1CCC(=O)Nc1ccccc1F,-4,2,34,2,3.5,/,8,-1,-3.0,0.0
Cc1ncc(C[n+]2csc(CCOC(=O)CC34CC5CC(CC(C5)C3)C4)c2C)c(N)n1,-3,-7,22,1,-3.3,-1,/,/,/,0.5
O=C(N=Nc1c(O)[nH]c2ccc(F)cc12)C1COc2ccccc2O1 (stereo not drawn),5,-3,-4,-7,2.3,-9,13,6,2.2,-0.3
Nc1cc(Cl)ccc1C(=O)OCC(=O)N1CCCCCC1,-2,/,/,1,-5.6,/,8,12,-0.5,0.8
O=C(C1CC1)N1c2ccccc2Sc2ccccc21,2,2,-8,1,1.3,-10,-40,-58,-8.0,1.2
O=C(COC(=O)CCC(=O)c1ccc(Cl)cc1)NCc1ccc(F)cc1,-4,/,/,1,-10,/,-2,-1,0.9,0.1
CCOC(=O)c1c(C)nc(C)c(C(=O)OCC)c1-c1ccco1,-2,4,-2,-2,3.3,1,-6,-8,4.0,-0.4
CC(Oc1ccc2ccccc2c1)C(=O)NNC(=O)Nc1ccccc1 (stereo not drawn),4,-16,-19,-7,3.1,-20,-28,-23,-2.0,-0.2
COC(=O)c1cc(Cl)c(NC(=O)C(C)C)cc1OC,1,6,-9,2,-2.7,/,6,2,-2.1,-0.1
C/C=C/c1ccc(OCC(O)CN2CCCCC2CC)c(OC)c1 (stereo not drawn),-5,1,11,0,/,/,-6,5,2.1,-0.6
Cc1ccc2nc(/C(C#N)=C/c3ccc(O)c(O)c3)[nH]c2c1,-144,4,-22,2,-6.6,89*,7,1,-5.6,-5.0
COc1ccccc1NC(=S)N1CC(C)OC(C)C1 (stereo not drawn),6,?,-9,-4,4.8,-4,17,11,3.7,-0.4
Cc1ccc(C(C)C)c(OCc2ccc(-c3nnco3)cc2)c1,4,5,10,-7,11,2,/,/,/,0.9
CN(C(=O)c1ccnn1C)C1CCCN(Cc2ccccc2F)C1 (stereo not drawn),0,-4,6,-5,-2.2,-5,1,1,-0.6,1.6
Cc1nc2ccc(Cl)cc2c(-c2ccccc2)c1C(=O)N(C)C,-1,19,15,/,-1.2,-8,-7,-6,2.2,0.9
COc1ccc(C(CNC(=O)C(C)c2ccc3cc(OC)ccc3c2)N(C)C)cc1 (stereo not drawn),-2,-9,24,0,-3.6,0,-2,-1,2.5,2.3
O=C(O)CSCCc1ccccn1,-1,1,-8,-5,0.9,-5,/,/,/,0.7
COCCn1c(=O)[nH]c(=O)c2c1nc(-c1cc(Br)c3c(c1)OCO3)n2Cc1ccccc1,8,-1,13,10,0.5,-10,-6,-8,3.8,-0.7
Cc1cc(C(=O)N2CCCC(N3CCN(c4ccc(F)cc4)CC3)C2)c(C)o1 (stereo not drawn),-2,-6,-6,-3,0.0,51,0,0,-1.8,0.1
Cc1ccc(C)c(NC(=O)COC(=O)CCNC(=O)c2ccco2)c1,-5,/,/,-7,4.7,6,14,3,-0.3,-0.5
Cc1nc(-c2ccccc2)sc1C(=O)Nc1ccccc1F,2,8,-2,0,-1.1,-8,-7,-9,-11,0.2
O=S(=O)(Nc1nc2ccccc2nc1Cl)c1cccc(C(F)(F)F)c1,3,16,-20,1,-2.3,-14,-22,-48,-6.5,2.1
O=C(CCCSc1nc2ccccc2[nH]1)NCc1ccccc1,0,-4,-13,-2,-2.2,1,2,-6,-9.7,-0.1
CCOc1ccccc1N1CCN(C(=O)c2cc(-c3cc(OC)ccc3OC)nc3ccccc23)CC1,21,-2,30,8,13,0,2,7,1.5,-0.1
O=C(Nc1ccc2c(c1)nc1n2CCOC1)c1ccco1,-11,-12,4,1,-1.4,/,/,/,/,-0.7
Cc1nnsc1SCCNC(=O)c1ccc(F)cc1,-20,-1,9,-4,5.8,-10,/,/,/,-0.4
Cc1ccc(S(=O)(=O)[N-]c2nc3ccccc3nc2-n2cc[n+](CCC(C)C)c2)cc1,13,19,36,0,2.2,-13,/,/,/,0.5
COc1ccc(OCC(=O)Nc2ccc(N3CCOCC3)c(Cl)c2)cc1,28,/,-4,-1,-0.9,14,/,/,/,0.5
CC(C)n1cnc2c(NCc3ccccc3)cc(Cc3ccc(F)cc3)cc21,4,/,/,11,4.8,-3,-21*,-16*,-2.0*,0.1
Cc1ccc(NC(=O)Nc2ccc(F)cc2)nc1,-4,5,9,-12,-5.3,-1,/,/,/,1.3
CCC1C(=O)NCCN1C(=O)c1ccc2nc(Cc3cccc(Cl)c3)oc2c1 (stereo not drawn),/,-2,0,-2,-2.5,-15,5,1,1.1,0.1
CCC(=O)c1ccc(N2CCN(C(=O)c3ccc(Br)cc3)CC2)c(F)c1,-14,6,15,3,-3.6,/,/,/,/,-0.2
CC(C)c1nnc(NC(=O)CCC(=O)N2CCC(Cc3ccccc3)CC2)s1,3,-7,-1,/,0.5,-1,-10,-29,3.4,-0.4
CCCCN1CCNC[C@H]1Cc1ccc(O)cc1,-3,-7,-9,6,2.3,/,8,7,-3.0,0.3
N#C/C(=C(/O)c1ccccc1F)c1nc2cc(C(F)(F)F)ccc2s1,15,-2,/,-1,1.5,/,-8,-10,-0.6,0.1
Cc1ccc(Nc2nc(Cl)nc(N(C)C#N)n2)cc1,13,0,-12,-4,-3.5,97*,7,4,2.6,0.0
